Screens deposited in PubChem by ICCB-Longwood Screening Facility, Harvard Medical School.
AID504770 = growth inhibitors of E. coli YBA685 in a screen for V. cholerae RctB (chromosome II replication) inhibitors; E. coli YBA685 rctB-dependent plasmid, OD600 growth, 3 h; hits give low values; z-score (test concentration not listed); 130,000 tested, 0.27% active;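 active = z-score under -2 on both plates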;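 note: wells of about 30 µL received 100 nL stock; score is relative to mean and SD of the test wells; the first replicate is given; strong numbers were not always called active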
Ba CapD inh = blocks the Bacillus anthracis CapD enzyme; AID 492967; 140,000 tested, 0.23% active; purified CapD enzyme, fluorescence intensity read-out; hits give low values; some hits fall short of the stated cut; z-score (test concentration not listed);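 active = z-score under -4 in either of two replicates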;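 note: stock transfer was 100 nL into about 40 µL; score is relative to mean and spread of the plate; one replicate is shown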
Active calls of the source: *; · = no result given; & = joins results of further samples.

Compound,Ba CapD inh,AID504770
COc1ccc(/C=C2/C(=O)N=C(N)N2C)cc1,-2.9,1.1
COc1ccc(OC(=O)c2ccc(Cl)cc2)cc1,0.1,-0.55
COC(=O)C(NC(=O)Cc1c(C)nc2c(-c3ccccc3)c(C)nn2c1C)C(C)C (centres undefined),0.025,0.35
CCCc1c(C)c(C#N)c2nc3ccccc3n2c1NCCCn1ccnc1,·,-0.55
Cc1nc2ncnn2c(C)c1CC(=O)O,·,0
CC(C)(C)SCC(=O)Nc1nn2cnnc2s1,·,0.3
CCc1ccc(S(=O)(=O)Nc2ccc(-c3nc4cccnc4s3)cc2)s1,·,0.5
CC1=CC(C)(C)Nc2ccc(OC(=O)c3ccc(Cl)cc3)cc21,-0.095,-0.2
Cc1cccc2nc(-c3cc4ccccc4s3)oc(=O)c12,0.94,1.4
Cc1nc(SCC(=O)N(C)c2ccccc2)c(C#N)c(C)c1C,0.59,0.6
COc1ccc(CCN2CC(C(=O)O)CC2=O)cc1 (centres undefined),·,1.4
CC(NCc1ccccn1)C(O)c1ccccc1 (centres undefined),·,0.1
COc1ccc(/C=C2\CC(C(C)(C)C)C/C(=C\c3ccc(OC)c(OC)c3)C2=O)cc1OC (centres undefined),-0.42,·
O=C1Nc2ccccc2/C1=C/C1CC=CCC1 (centres undefined),-0.35,-0.1
Cc1[nH]n(-c2ccc(Br)cc2)c(=O)c1C1=c2ccccc2=NC1=O,-0.17,-0.35
N#CCN(CC#N)C(=O)c1ccco1,0.23,-0.3
Cc1ccc(C(=O)C2CCN(C(=O)c3ccc(C)cc3)CC2)cc1,0.2,·
CCOc1nc(Nc2ccccc2)nc(Nc2ccccc2)n1,0.16,-0.35
Cc1cc(C)n(C(=O)N2CCOCC2)n1,·,-1.2
O=C(Nc1ccc2oc(=O)ccc2c1)c1cc2ccccc2o1,6.1,0.1
OCC(O)Cn1c2ccc(Br)cc2c2cc(Br)ccc21 (centres undefined),-0.69,-0.45
COc1cccc(C(=O)n2nc(-c3cccnc3)nc2NCc2ccco2)c1,-0.37,-0.1
COc1ccc(S(=O)(=O)NCC2COc3ccccc3O2)cc1 (centres undefined),-0.38,·
CN1/C(=C/C(=O)c2ccco2)Sc2ccccc21,-2,-0.25
COc1ccc(C(=O)NNc2nnc(C(C)(C)C)c(=O)n2N)cc1,·,-1.7
C=CCNc1nc(-c2ccc(OC)cc2)cs1,-0.25,-0.8
C=C(C)C(=O)Oc1ccc2c(c1)C(C)=CC(C)(C)N2,0.27,-0.85
Cc1ccc(CCNC(=O)C2CC(=O)N(C3CCCC3)C2)cc1 (centres undefined),0.38,-0.1
CCOc1ccccc1NC(=O)[C@H]1O[C@@H]2OC(C)(C)O[C@@H]2[C@H]2OC(C)(C)O[C@H]21,-0.41,·
Nc1ccccc1-c1nnc(SCC(=O)c2ccc(Cl)cc2)[nH]c1=O,·,0.5

Compound profiles (already shown):
Entry for CN1/C(=C/C(=O)c2ccco2)Sc2ccccc21 : Ba CapD inh = -2; AID504770 = -0.25
Entry for Cc1cc(C)n(C(=O)N2CCOCC2)n1 : Ba CapD inh = ·; AID504770 = -1.2

(listing goes on)
Compound,Ba CapD inh,AID504770
O=C(COC(=O)Cc1ccc(Br)cc1)NC1CC1,-0.21,1.4
CC12CC3(C)CC(C)(C1)CC(C(=O)NCC(=O)O)(C2)C3,0.17,-0.8
Cc1ccc(CS(=O)(=O)c2oc(-c3cccs3)nc2S(=O)(=O)c2ccc(F)cc2)cc1,11,0.6
CCOC(=O)CC(=O)Nc1ccsc1C(N)=O,0.76,-0.5
O=C(CSc1nncn1-c1ccccc1)c1ccc(S(=O)(=O)N2CCCC2)cc1,·,0.25
N#CC(C#N)=CNCCc1ccncc1,-0.54,0
Cc1ccc(N2C(=O)C(C)(C)C(C)(C)C2=O)cc1,-0.045,-0.65
Cc1c(Cl)cn2c(=O)cc(CN(C)Cc3nc4ccccc4c(=O)[nH]3)nc2c1Cl,·,-1
O=C(c1ccccc1)N1CCN(C(=O)c2ccccc2)C1c1ccccc1,0.74,·
CC(=O)Nc1ccc(NC(=O)CN(C)S(=O)(=O)c2ccc3nc(C)sc3c2)cc1,0.53,0.45
COC(=O)Nc1sc(Cc2ccccc2)cc1C(N)=O,0.68,0.6
N#Cc1c(N)nc(SCC(=O)Nc2cccc([N+](=O)[O-])c2)c(C#N)c1-c1ccc(F)cc1,-0.04,·
O=C1CC(c2ccc(Cl)cc2)Nc2nc3ccccc3n21 (centres undefined),1.3,0.15
CNC(=O)c1ccccc1-c1nc(-c2ccccc2OC)no1,0.07,-0.3
O=C(NNC(=O)c1ccc(-c2ccccc2)cc1)OCC1CCC1,1.5,·
CC1CC2=C(NC(=S)NC2c2ccc(Cl)cc2)/C(=C/c2ccc(Cl)cc2)C1 (centres undefined),-0.83,-0.5
C=CCN1CC[C@]23c4c5ccc(O)c4OC2C(=O)CC[C@@]3(O)[C@H]1C5 (some centres undefined),51,0.95
CC(C)C1Nc2ccc(C(=O)NCc3ccccc3)cc2NC1=O (centres undefined),2.7,-1.5
CCn1cc(S(=O)(=O)c2cc(C)ccc2C)c(=O)c2cc(F)c(N3CCOCC3)cc21,26,0.1
Cc1c(N(C)CS(=O)(=O)O)c(=O)n(-c2ccccc2)n1C,-0.45&0.48,-0.2
COc1cccc(C(=O)NNC(=O)c2ccc(-c3ccccn3)s2)c1,59,·
O=C(c1ccncc1)C12CN3CN(CN(C3)C1)C2,0.34,-0.15
COc1ccc(N2CCN(C(=O)[C@H](C)N3C(=O)c4cc(Cl)c(Cl)cc4C3=O)CC2)cc1,·,-0.8
COc1ccc(C2(c3ccc(OC)cc3)C=Cc3c(ccc4c3Cc3ccccc3-4)O2)cc1,0.66,·
Fc1ccc(C2Nc3ccc(Br)cc3C(c3ccccc3)O2)cc1 (centres undefined),-0.2,·
CCOc1ccc(CCNC(=O)CSc2nc(C)c(Cl)c(C)c2C#N)cc1OCC,0.32,0.3
O=[N+]([O-])c1cc(C(F)(F)F)ccc1Oc1ccccc1,0.065,·
CCOC(=O)c1c(C)oc(NC(=O)Nc2ccc(F)cc2)c1C(=O)OCC,0.19,-0.65
Cc1nc2ccccn2c1/C=C1\C(=O)N(C)C(=S)N1C,·,1.6
O=c1cc(-c2ccc3ccccc3c2)[nH][nH]1,3,-0.6
Cc1cc(NC(=O)Cn2cc(S(=O)(=O)N(Cc3ccccc3)Cc3ccccc3)ccc2=O)no1,·,-0.65
Cc1ccn(C(=O)c2ccc(Br)cc2)n1,0.17,-0.3
Cc1cc(NC(=O)CSc2nc(NCc3ccccc3)c3ccccc3n2)no1,0.28,·
CCOC(=O)C1CCN(Cc2c[nH]c3ccccc23)CC1,-0.015,-0.15
O=C(c1cccc2ccccc12)N1CCc2ccccc21,0.3,-0.05
COc1cc(OC)cc(C(=O)Nc2cc(C(=O)N3CCN(C(C)=O)CC3)ccc2N2CC3CC(C2)c2cccc(=O)n2C3)c1 (centres undefined),-0.15,·
COC(=O)COc1ccc(CSc2nc3ccccc3c(=O)n2C)cc1,-0.065,1.8
CCCCCCN1C(=O)c2ccc(Br)cc2C1=O,·,-0.1
CCCCn1c(CCNC=O)nc2ccccc21,0.075,0.25
COc1ccc(C2/C(=C(/O)c3ccccc3)C(=O)C(=O)N2Cc2ccccc2)c(OC)c1 (centres undefined),-0.2,·
Cc1cc(NC(=O)CSc2ccc3ccccc3c2)no1,-0.97,1.9
O=C(NCc1ccc(F)cc1)c1ccc2c(c1)[nH]c(=S)n1c3ccccc3nc21,-0.1,·
N#CCCn1cc(C(=O)N2CCCCC2)c(-c2ccccc2)n1,·,0.55
Cc1cc2c(cc1C)CSC(c1cc(Cl)cc(Cl)c1O)SC2,-0.39&-0.005,·
CCOC(=O)C(C)Sc1nc2c(c(-c3cccs3)c1C#N)CN(C)CC2 (centres undefined),-0.2,·
Cn1c(=O)c(Cc2ccccc2Cl)nc2cc(C(=O)c3ccccc3)ccc21,-0.44,·
Cc1cc(C2C(C#N)=C(N)N(c3cc([N+](=O)[O-])ccc3C)C3=C2C(=O)CC(C)(C)C3)c(C)s1 (centres undefined),0.1,·
CN1C2=C(C(=O)CCC2)C(c2ccc(O)c(Cl)c2)C2=C1CCCC2=O,2.7,-0.1
O=C(CN1C(=O)CCSc2ccccc21)N1CCCCCC1,-0.26,-0.85
COc1ccccc1-c1nc(-c2ccccc2)nc(N2CCN(C)CC2)c1C#N,-0.34,·
COc1cc(NC(=O)c2ccccc2)c(OC)cc1NC(=O)CN1CCCCC1,·,-1.3
COCCNC(=O)c1ccc2c(c1)CCN2S(=O)(=O)c1ccc(C)cc1,0.3,0.9
Clc1cccc(Cl)c1CSc1cc2c(nn1)-c1ccccc1CC2,-0.35,·
CSc1nc(-c2ccccc2)nc2[nH]ccc(=O)c12,-0.04,0.85
CCOc1cc2[nH]c(=S)n(CCC(OCC)OCC)c(=O)c2cc1OCC,-1,0.4
O=C(NCCC1=CCCCC1)C1CC(=O)N(C2CCCC2)C1 (centres undefined),0.09,-0.7
COc1ccc(S(=O)(=O)N2CCN(Cc3cccc(F)c3)CC2)c(OC)c1,0.1,-0.65
C1CNCC(CN2CCCC2)C1 (centres undefined),·,0.65
Fc1ccc(N=Cc2ccc3ncccc3c2)cc1F,0.005,0.75
O=C(O)CC1(CC(=O)N2CCc3ccccc32)CCCC1,-0.13,0.25

5 records drawn at random from those above, as already listed:
Compound,Ba CapD inh,AID504770
O=C(c1cccc2ccccc12)N1CCc2ccccc21,0.3,-0.05
Cc1cc(NC(=O)CSc2ccc3ccccc3c2)no1,-0.97,1.9
N#CCCn1cc(C(=O)N2CCCCC2)c(-c2ccccc2)n1,·,0.55
COC(=O)COc1ccc(CSc2nc3ccccc3c(=O)n2C)cc1,-0.065,1.8
Cc1cc(C2C(C#N)=C(N)N(c3cc([N+](=O)[O-])ccc3C)C3=C2C(=O)CC(C)(C)C3)c(C)s1 (centres undefined),0.1,·

Continued.
Compound,Ba CapD inh,AID504770
CNc1nc(Oc2ccc(C(=O)OC)cc2)nc(SC)n1,-0.15,-0.45
CSc1nnc2[nH]c(=O)cc(N)n12,0.03,-0.65
CCOC(=O)c1ccc(S(=O)(=O)Nn2c(SCc3cc(=O)n4ccccc4n3)nc3ccccc3c2=O)cc1,13,·
Cc1cc(Br)c2c3c(c(N)c(=O)[nH]c13)-c1ccccc1C2=O,·,1.2
COc1cc([N+](=O)[O-])c(OC)cc1SCC(=O)NNC(=S)Nc1cccc(Cl)c1C,0.2,·
Cc1cc(C)c(C(=O)Nc2ccccc2)c(CC(C)(C)C(=O)O)c1,-0.59,-0.7
CCS(=O)(=O)c1ccc(C(=O)Nc2nccs2)c(Cl)c1Cl,0.015,·
Cc1cccc(-n2c(SCC(N)=O)nc3c(c2=O)C2(CCCCC2)Cc2ccccc2-3)c1,0.28,·
CC1CCc2c(sc(NC(=O)COn3nnc4ccccc43)c2C(N)=O)C1 (centres undefined),·,0.55
CCOC(=O)c1c(NC(=O)C(C)Sc2nnc(CNC(=O)COc3ccc(Cl)cc3)n2C)sc2c1CCCC2 (centres undefined),-0.76,·
Cc1[nH]nc2c1C(CCc1ccccc1)C(C#N)=C(N)O2 (centres undefined),0.24,1.4
CCN(CC)C(=O)c1c(NC(=O)c2ccco2)sc2c1CCCCC2,-0.26,-1.1
O=C(Nc1ccsc1C(=O)N1CCOCC1)c1ccccc1,-0.53,-0.45
O=C(Nn1c(SCC(=O)N2CCN(c3ccccc3)CC2)nc2ccccc2c1=O)c1ccc(F)cc1,-0.34,·
CCOC(=O)c1ccc2c(c1)N(C)C(=O)c1ccccc1S2,0.28,-1
CN1CCN(CC(=O)N2c3ccccc3Sc3ccccc32)CC1,0.26,-0.1
Cc1cc(C(=O)NCCC2=CCCCC2)c(C)o1,0.015,0.1
CCC(O)c1nc2ccccc2n1CC1CCCCC1 (centres undefined),-0.33,-0.3
Cc1cc2ccccc2n1CCNC(=O)C(C)C,0.74,0.35
CCOC(=O)c1c(-c2ccccc2)oc2c1cc(OC(=O)c1ccccc1Cl)c1ccccc12,0.14,·
Cc1ccc(C)c(-n2c(Cc3cc(=O)[nH]c(=O)[nH]3)nnc2SCC(=O)Nc2nnc(C)s2)c1,·,-0.35
O=C(NCCCN1CCCC1)C1CCN(c2nc3cccnc3s2)CC1,-2.3,2
N#CC1(C#N)[C@H](c2ccc(Cl)c(Cl)c2)[C@@H](C(=O)c2ccccc2)N2c3ccc4ccccc4c3C=C[C@@H]21,2.8,·
CCOC(=O)c1ccc(S(=O)(=O)N(C)C)cc1,-2.5,-0.75
O=C(CSc1nnc(-c2ccc(F)cc2)o1)N1CCCC2CCCCC21 (centres undefined),·,-0.95
O=C(CSc1nc2ccsc2c(=O)n1CC1CCC(C(=O)O)CC1)Nc1nccs1 (centres undefined),0.12,0.15
O=C(NCCSc1ccc(Cl)cc1)c1ccco1,0.34,-0.55
Cn1cccc1Cc1nnc(SCC(=O)N2CCCC2)n1CCc1ccccc1,0.32,-1.7
COc1cc(Cl)ccc1S(=O)(=O)N1CCN(c2ccc(C)c(C)c2)CC1,0.54,0.25
CC(C)(C)C1CCC(OC(=O)c2cccnc2)CC1 (centres undefined),·,-0.35
